miR-21 FLuc – miR-21 reporter, rising signal; HeLa miR-21 FLuc reporter, luciferase, 48 h; Potency, µM (doses to about 38.3 µM), for inactives: top-dose reporter change, positive = more light; 340,000 tested, under 10 active; active = well fitted rising curve with a large enough effect; inconclusive = small, poorly fitted or top-dose-only effect; inactive = no such curve, though single readings can be large or run the other way;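 note: % of control where 0% means no effect; miR-21 action dims this reporter so a rising signal means less miR-21 action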
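HeLa miR-21-FLuc reporter line, endogenous miR-21; 2000 cells/well in DMEM/10% FBS; compound titration up to ~40uM final, 48 h, 37 degree Celsius; luciferase detection reagent, 15 min lysis, CCD luminescence.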
Starred values were filed as active, the others as inactive; ? = inconclusive.

SMILES	miR-21 FLuc
COc1ccc(C(=O)Nc2cc(C(F)(F)F)ccc2N2CCN(c3ccccc3)CC2)cc1OC	-10%
Cc1cc(C)c2oc(-c3cccc(NC(=O)COc4ccccc4Cl)c3C)nc2c1	-10%
COc1cccc(-c2cc(C(=O)Nc3ccc(C)cc3)[nH]n2)c1	-37%
CN1C(=O)c2ccccc2Sc2ccc(NC(=O)Cc3c(F)cccc3Cl)cc21	?
Cc1nn(C)c(C)c1CCNC(=O)Nc1cccc(Cl)c1C	-8%
CC(C)(C)c1ccc(C(=O)NCC(c2cccs2)S(=O)(=O)c2cccs2)cc1 (stereo not given)	13%
Cc1ccc(N2CCN(C(=O)c3cn(C)c4ccc(S(=O)(=O)N(C)C5CCCCC5)cc4c3=O)CC2C)cc1 (stereo not given)	-2%
CCN1CCN(C(c2cccc(OC)c2)c2c(O)cc(C)n(Cc3ccco3)c2=O)CC1 (stereo not given)	-1%
CCOc1ccc(NC(=O)c2cc(S(=O)(=O)NC3CCCCCC3)ccc2F)cc1	12%
Cc1ccc(CCNS(=O)(=O)c2c(C)nc3sc(C)c(C)n3c2=O)cc1	1%
Cc1ccc(C2CC(=O)N(Cc3ccccc3)c3c2c(C)nn3-c2nc(C)cc(C)n2)cc1 (stereo not given)	-1%
CCOc1ccccc1-n1ccnc(NCc2ccc(F)cc2)c1=O	-7%
Cc1ccc(CN2C(=O)c3ccccc3Sc3ccc(C(=O)NCc4ccco4)cc32)cc1	0%
COc1ccc(C)cc1Nc1cc(C)nc(C)n1	-11%
O=C(O)c1cc(-c2ccc(C(F)(F)F)cc2)nc2n[nH]c(-c3ccccc3)c12	-84%
CCOC(=O)c1c(C)[nH]c(CCC(=O)Nc2ccccc2C(F)(F)F)c1C	9%
COc1ccc(C2c3c(n(C)c4ccccc34)C(=O)N2CC(=O)Nc2cccc(Cl)c2C)cc1 (stereo not given)	7%
CCCn1cc(S(=O)(=O)c2ccccc2)c(=O)c2cc(F)c(N3CCCCC3)cc21	-4%
COc1ccc(C(=O)NCC(c2ccc3c(c2)OCO3)N2CCN(c3ccccc3F)CC2)cc1 (stereo not given)	19%
CC1CCN(S(=O)(=O)c2ccc3[nH]cc(C(=O)NCc4ccc(F)cc4)c(=O)c3c2)CC1	-3%
COCCCn1c(=O)c2sccc2n2c(CCCC(=O)Nc3cccc(C(F)(F)F)c3)nnc12	3%
COC(=O)Cn1c(CN2CCN(c3ccc(OC)cc3)CC2)nc2c1c(=O)[nH]c(=O)n2C	-1%
CCOC(=O)c1ccc(NC(=O)C2=C(C)Nc3nc(SCc4ccc(Cl)cc4)nn3C2c2ccc(OC)cc2)cc1 (stereo not given)	-4%
CCCn1c2ccccc2c2cnn(CC(=O)NCCc3ccc(OCC)cc3)c(=O)c21	0%
COc1ccc(/C=C/c2nc(C#N)c(N3CCC(C)CC3)o2)cc1OC	29%

In the list so far, these contain a furan ring, fused or not:
SMILES	miR-21 FLuc
CCN1CCN(C(c2cccc(OC)c2)c2c(O)cc(C)n(Cc3ccco3)c2=O)CC1 (stereo not given)	-1%
Cc1ccc(CN2C(=O)c3ccccc3Sc3ccc(C(=O)NCc4ccco4)cc32)cc1	0%

Some of the entries above, reformatted:
mol | miR-21 FLuc
CCOc1ccccc1-n1ccnc(NCc2ccc(F)cc2)c1=O | -7%
COc1cccc(-c2cc(C(=O)Nc3ccc(C)cc3)[nH]n2)c1 | -37%
COc1ccc(/C=C/c2nc(C#N)c(N3CCC(C)CC3)o2)cc1OC | 29%

(listing goes on)
SMILES	miR-21 FLuc
Cc1ccc(Nc2c(-c3cc(Br)ccc3F)nc3cc(C)ccn23)cc1	8%
CCOc1ccc(-n2c(=O)c3c(C)c(C)sc3n(Cc3ccc(C(C)(C)C)cc3)c2=O)cc1	13%
COc1cccc(CNCCCSc2nnnn2C)c1	-9%
Cc1cccc(-c2noc(-c3cccnc3NCc3ccccc3Cl)n2)c1	16%
COc1cccc(CNC(=O)CSc2c3c(nc4cc(Cl)ccc24)CCCC3)c1	17%
CC(C)c1ccc(OCC(=O)Nc2cc(-c3ccccc3)no2)cc1	-13%
Cc1ccc(Cl)cc1N(C)C(=O)c1sc2nc3n(c(=O)c2c1C)CCCC3	11%
CCNc1nc2c(c(=O)[nH]c(=O)n2C)n1CC(O)COc1ccc(Cl)cc1Cl (stereo not given)	12%
CCOc1ccc(NC(=O)CN(C)S(=O)(=O)c2ccc3[nH]c4c(c3c2)CCCC4)cc1	28%
CCOC(=O)c1ccccc1NC(=O)NC(C)c1c(-n2cccc2)sc(C)c1C (stereo not given)	0%
CCn1c(CN2CCOCC2)nc2cc(NC(=O)c3cccc([N+](=O)[O-])c3)ccc21	1%
CSc1ccc(CNC(=O)c2cc3cc(S(=O)(=O)N4CCCCC4)ccc3n2C)cc1	14%
Cc1nnc(SCC(=O)Nc2ccc(N(C)C)cc2)[nH]c1=O	2%
CCc1ccccc1NC(=O)Nc1cc(C(=O)NCc2cccc(F)c2)ccc1N1CCCC1	-3%
Cc1noc(Cn2c(=O)c3ccccc3n(CC(=O)Nc3ccccc3C(F)(F)F)c2=O)n1	5%
CCc1ccc2c(c1)c(=O)c(C(=O)c1ccc(C)cc1)cn2CC(=O)Nc1ccccc1C	-1%
CN(CC(=O)Nc1ccc(F)cc1F)S(=O)(=O)c1ccc(C(=O)N2CCOCC2)s1	-1%
COc1ccc(-c2onc(C)c2C)cc1S(=O)(=O)NCC1CCN(Cc2cc(C)ccc2C)CC1	-1%
CC(C)CCn1c(=O)c2sccc2n2c(CCCC(=O)NC(C)C)nnc12	0%
Cc1ccc(-c2nc3ccccc3n3c(-c4ccccc4)c4c(=O)n(C)c(=O)n(C)c4c23)cc1	-1%
Cc1c(C(=O)OC2CCCCC2)[nH]c2c1C(=O)CC(c1ccc(F)cc1)C2 (stereo not given)	1%
CCCCc1nn2c(=O)cc(COC(=O)c3ccc(NC(=O)C(CC)CC)cc3)nc2s1	12%
Cc1cc(Nc2cccc(C(=O)O)c2)n2nc(C)nc2n1	2%
O=C(NC(=O)c1ccccc1)Nc1ccc(-c2cc(C(F)(F)F)nn2-c2ccccc2)cc1	-5%
COc1cc(Cl)c(C)cc1NC(=O)c1cc2c(Cl)nc3ccc(C)cc3c2s1	4%

As a working copy, some entries already given.
SMILES	miR-21 FLuc
Cc1cc(Nc2cccc(C(=O)O)c2)n2nc(C)nc2n1	2%
O=C(NC(=O)c1ccccc1)Nc1ccc(-c2cc(C(F)(F)F)nn2-c2ccccc2)cc1	-5%

Next section.
SMILES	miR-21 FLuc
COc1ccc(-c2cn3c(n2)sc2cc(C(=O)NC4CCCCCC4)ccc23)cc1	-3%
CCC1CCCCN1CCCNC(=O)c1cc2c(Cl)nc3ccc(C)cc3c2s1 (stereo not given)	2%
CCOC(=O)c1c(C)oc2nc(C)nc(N3CCN(c4cccc(C)c4C)CC3)c12	-1%
Cc1cc(OCCn2cc(C(=O)c3ccco3)c3ccccc32)ccc1Cl	8%
COc1ccc(-n2c3c(cc(-c4nc(-c5ccc(C)cc5)cs4)c2=O)C(=O)CC(C)(C)C3)cc1	-3%
COc1ccccc1CNC(=O)c1cccn1-c1nnc(N2CCCCC2)s1	0%
COc1ccc(-c2noc(CSc3nc4ccccc4[nH]3)n2)cc1	-2%
O=C(CSc1nnc(-c2cccs2)o1)Oc1ccccc1	-2%
CCCC1=Nc2cc(C(=O)NCC(C)c3ccccc3)ccc2Sc2ccccc21 (stereo not given)	?
Cc1ccccc1Cn1c(Oc2ccccc2F)nc2c1c(=O)n(C)c(=O)n2C	-1%
COc1ccc(OC)c(S(=O)(=O)NCCc2sc(C)nc2C)c1	-5%
COc1ccc(C2CC(=O)N(CC(=O)Nc3cc(C)ccc3C)c3ccccc3S2)cc1 (stereo not given)	-1%
CC(=O)N1CCCC1c1nc2ccccc2n1Cc1ccccc1Cl (stereo not given)	8%
COC(=O)c1c(NC(=O)c2nc(SCc3ccccc3C)ncc2Cl)sc2c1CCCC2	-1%
O=C(NCc1ccc(Cl)cc1)c1ccc(Cn2c(=O)c3cccn3c3cccnc32)cc1	-1%
CN1C(=O)Cc2cc(S(=O)(=O)CCC(=O)Nc3ccccc3)ccc21	-2%
CCc1ccc(-n2c(=O)c3c4c(sc3n(Cc3ccccc3C#N)c2=O)CCCC4)cc1	-7%
Cc1cccc(-c2nc(C)c(CCNC(=O)c3cccs3)s2)c1	-42%
Cc1ccc(C)c(Nc2nnc(-c3ccc(C)c(S(=O)(=O)NCC4CCCO4)c3)c3ccccc23)c1 (stereo not given)	?
Cc1ccccc1Nc1c(-c2ccc(Br)cc2O)nc2sccn12	-1%
Cc1ccc(-c2noc(C3CC(=O)N(c4ccc5c(c4)OCCO5)C3)n2)cc1 (stereo not given)	-1%
COc1cccc(CNC(=O)CCCn2c(=O)c3cccn3c3cccnc32)c1OC	-27%
CCN(CC)S(=O)(=O)c1ccc(NC(=O)CCc2c(C)nc3cc(-c4ccc(Cl)cc4)nn3c2C)cc1	?
Cc1cc(NC(=O)CCNS(=O)(=O)c2ccc3c(c2)CCCC(=O)N3)ccc1Br	4%
Cc1ccc(CSc2nc3cccnc3n2Cc2ccc(C(=O)NCCc3cccs3)cc2)cc1	?
Further records follow.
SMILES	miR-21 FLuc
CC1=C(c2ccc(C)c(C)c2)S(=O)(=O)N=C1N1CCC(C(=O)N2CCCCC2)CC1	26%
CC1=C(c2ccc(C(C)C)cc2)S(=O)(=O)NC1=NCc1ccccc1Br	-12%
Cc1cc(NC(=O)c2ccco2)cc(-c2nc3cc(Cl)ccc3o2)c1O	-9%
COc1ccccc1C(=O)Nc1ccccc1OCc1cc(=O)n2c(C)csc2n1	0%
CCOC(=O)c1cc(S(=O)(=O)N2CCN(c3cc(C)ccc3C)CC2)[nH]n1	27%
COc1ccccc1-c1nc2c(c(SCC(=O)Nc3ccc(C)c(C)c3)n1)Cc1c(CO)cnc(C)c1O2	-1%
CCCS(=O)(=O)N1CCC(N2CCN(Cc3ccc(F)cc3)C(=O)C2=O)CC1	3%
O=C(NCCCN1CCN(c2ccc(F)cc2)CC1)c1ccc2nc(CCc3ccccc3)oc2c1	26%
Cc1ccc(NC(=O)CN2C(=O)CCn3nc(-c4cccn4C)cc32)cc1	-9%
COc1cc(C)ccc1OCCSc1nnc(-c2cccs2)o1	-14%
COc1ccc(-n2ccnc2SCC(=O)Nc2cccc(OC)c2)cc1	8%
COc1ccc(CNC(=O)C(=O)Nc2cccc(C)c2C)cc1	-12%
O=C(Cn1c(=O)ccc2cc(S(=O)(=O)N3CCCC3)ccc21)NCc1ccc(F)cc1	-3%
COC(=O)c1cc(NS(=O)(=O)c2cc(Br)cc3c2N(C(C)=O)CC3)cc(C(=O)OC)c1	-11%
O=C(NCCc1ccc(Cl)cc1)c1ccc(CS(=O)(=O)Cc2ccc(Cl)cc2)o1	10%
CSc1ccc(CCNC(=O)CCCn2nc(C)c3sc4ccccc4c3c2=O)cc1	0%
CCc1ccc(NC(=O)CSc2nc(=O)n(Cc3ccco3)c3c2CCC3)cc1	-10%
CN(C(=O)Cn1nnc(-c2ccc(S(C)(=O)=O)cc2)n1)c1ccccc1	0%
CCOC(=O)c1c(C)[nH]c(C)c1S(=O)(=O)N1CCC(C(=O)N2CCN(c3ccccc3F)CC2)CC1	4%
Cc1ccc(S(=O)(=O)c2c(C)nn(-c3ccccc3)c2OC(=O)c2ccccc2F)cc1	1%
O=C(COc1ccc(F)cc1)NCCc1nc2ccccc2[nH]1	-4%
CN1CCN(CCCNC(=O)c2cnn(-c3ccccc3)c2-n2cccc2)CC1	-6%
CCOC(=O)c1[nH]c(C)c(CCC(=O)N2CCN(c3cc(C)ccc3C)CC2)c1C	-9%
CSc1cccc(NC(=O)N2CCN(c3cc(-c4noc(C)n4)ccc3C)CC2)c1	5%
COC(=O)c1cc2c(cc1NC(=O)c1cnn(-c3ccc(C)cc3)c1-n1cccc1)OCO2	-3%
(further entries)
SMILES	miR-21 FLuc
Cc1ncc(COC(=O)C(C)C)c2cc(C(=O)Nc3ccccc3C(F)(F)F)c(=O)oc12	-7%
COc1ccc(-n2c(-c3ccc(C)cc3)cc3c2CC(C)(C)CC3=O)c(OC)c1	20%
Cc1ccc(SC[C@H](Cc2ccccc2)N2CC[C@@H](NC(=O)OCc3ccccc3)CCC2=O)cc1	6%
Fc1ccccc1OCc1nc(-c2ccc(-n3cccc3)cc2)no1	-13%
COc1cc(OC)c(NC(=O)CSc2cc(=O)n(C)c3ccc(Cl)cc23)cc1Cl	6%
COc1cc(Cl)c(C)cc1NS(=O)(=O)c1c(C)nc2sccn2c1=O	0%
CCOC(=O)c1cnc2c(Cl)cc(Cl)cc2c1Nc1cc(C(=O)O)ccc1C	-21%
CCOC(=O)c1ccccc1NC(=O)N(Cc1ccc(C)cc1)Cc1cccn1-c1nnc(N2CCCC2=O)s1	-5%
O=C(NCc1ccc(Cl)cc1)C(=O)Nc1cccc(Br)c1	-7%
Cc1ccc(Cn2c3ccccc3c3cnn(CC(=O)Nc4cc(Cl)ccc4C)c(=O)c32)cc1	1%
CCCOC(=O)c1cccc(NC(=O)CSc2nnc3cc(C)c4ccccc4n23)c1	-6%
COc1ccc(-c2cc(C(=O)NCCc3ccccc3)c3cc(C(C)C)ccc3n2)cc1	-16%
O=C(c1cc2ccc3cccnc3c2[nH]1)N1CCCCC1	?

Arranged by value in miR-21 FLuc (falling): three of the compounds above
SMILES	miR-21 FLuc
COc1ccc(-n2c(-c3ccc(C)cc3)cc3c2CC(C)(C)CC3=O)c(OC)c1	20%
O=C(NCc1ccc(Cl)cc1)C(=O)Nc1cccc(Br)c1	-7%
COc1ccc(-c2cc(C(=O)NCCc3ccccc3)c3cc(C(C)C)ccc3n2)cc1	-16%

Source: PubChem BioAssay (National Center for Advancing Translational Sciences (NCATS))

Not all compounds are listed, so the mix of outcomes need not match the whole.
